D2 PAM: human D2 receptor positive allosteric modulation. potentiation, % (no concentration beside the values). P14416. AID 624464. hit rate 0.23% among 360,000. DiscoveRx D2 beta-arrestin cells, luminescence, 90 min; 100% = 57 uM dopamine signal; active = potentiation of 50% or more; inconclusive = 30% to 50%; inactive = 30% or less;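 note: compound concentration not given in the record; tested on top of an EC20 dose of dopamine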
Target sequence (P14416 whole entry, looked up): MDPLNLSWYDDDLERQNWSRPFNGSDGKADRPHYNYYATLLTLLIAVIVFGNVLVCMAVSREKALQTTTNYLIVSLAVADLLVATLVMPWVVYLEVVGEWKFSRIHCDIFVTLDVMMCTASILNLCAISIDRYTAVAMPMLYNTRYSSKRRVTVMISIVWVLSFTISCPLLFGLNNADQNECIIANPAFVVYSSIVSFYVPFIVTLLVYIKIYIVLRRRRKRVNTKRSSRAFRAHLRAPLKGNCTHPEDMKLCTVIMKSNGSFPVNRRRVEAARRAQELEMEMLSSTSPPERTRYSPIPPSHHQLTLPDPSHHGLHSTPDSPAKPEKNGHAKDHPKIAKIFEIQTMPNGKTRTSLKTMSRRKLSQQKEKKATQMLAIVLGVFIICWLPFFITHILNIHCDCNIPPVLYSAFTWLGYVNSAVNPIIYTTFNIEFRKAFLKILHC
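PathHunter beta-arrestin assay in DiscoveRx D2 cells. Compounds were added with an EC20 of dopamine (50 nM final) for 90 min at 37 deg C. Luminescence was read 1 h after detection reagent, with 57 uM dopamine as the EC100 control.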
PINK1 expr mod: modulators of PINK1 expression; PINK1 immunofluorescence, high-content cytometry, 24 h; Potency, µM (titrated, usually from 76.6 µM), inactives show at the top dose activation (PINK1 increase), actives largely listed as activators; hit rate 0.2% among 410,000; AID 624263; active = well fitted activation curve with a large enough effect; inconclusive = small, poorly fitted or top-dose-only effect; inactive = flat fitted curve, though single readings scatter; cell line not stated here;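 note: potency is the fitted concentration of half-maximal effect; % of control where 0% means no effect; nearly all actives have a fitted effect of over 65% in size; a mitochondrial uncoupler was the plate control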
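Readout is PINK1 immunofluorescence, quantified alongside mitochondrial, cell and nuclear markers by laser-scanning microplate cytometry. Cells from a stable line were exposed to compound titrations (5 concentrations) for 24 hours, with CCCP controls.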
D2 agonist: agonists of human D2 dopamine receptor (beta-arrestin) | P14416 | DiscoveRx PathHunter D2 beta-arrestin, luminescence, 90 min; 100% = 57 uM dopamine signal | activation, % (test concentration not listed) | hit rate 0.084% among 360,000 | AID 624465; in the data active = activation above about 40%; inconclusive = about 15% to 40%; inactive = below about 15%; note: compound concentration not given in the record; the text of the record calls up to 30% inactive
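DiscoveRx PathHunter D2 beta-arrestin cells (2,100/well) attached overnight, then compound-stimulated 90 min at 37 C in HBSS/10 mM HEPES/0.1% Tween-20 buffer; beta-galactosidase complementation read by luminescence after 1 h at ambient temperature. Dopamine 57 uM final (EC100) as control.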
Six1-Eya2 blk: Six1/Eya2 interaction inhibition. hit rate 0.56% among 360,000. AlphaScreen GST-Six1/His-Eya2 binding, biochemical; active compounds read low; control for the full effect not named in the record. activity change, % (test concentration not listed). Q15475+O00167. AID 651725; in the data active = activity change below about -65%; inconclusive = about -30% to -65%; inactive = above about -30%; note: % is set by controls: 0 for no effect and ±100 for the full control effect
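Compounds are tested against tagged Six1 and Eya2 proteins bridged by glutathione donor and nickel acceptor beads; after a one-hour incubation at 37 °C without light, AlphaScreen emission is recorded.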
TRPML1 inh: human mucolipin-1 channel inhibition | TRPML1-inducible cells, Ca2+ dye fluorescence, FDSS; active compounds read low; inhibition of EC80 agonist-evoked calcium signal | activity change, negative = inhibition, % (no concentration beside the values) | Q9GZU1 | hit rate 0.02% among 390,000; in the data active means activity change below about -50%; inconclusive means about -30% to -50%; inactive means above about -30%;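 note: stimulus is agonist 54-4 at its EC80 concentration; % is set by controls: 0 for no effect and ±100 for the full control effect; compound concentration not given in the record; the text of the record puts the active cut at -80%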
Target sequence (Q9GZU1 whole entry, looked up): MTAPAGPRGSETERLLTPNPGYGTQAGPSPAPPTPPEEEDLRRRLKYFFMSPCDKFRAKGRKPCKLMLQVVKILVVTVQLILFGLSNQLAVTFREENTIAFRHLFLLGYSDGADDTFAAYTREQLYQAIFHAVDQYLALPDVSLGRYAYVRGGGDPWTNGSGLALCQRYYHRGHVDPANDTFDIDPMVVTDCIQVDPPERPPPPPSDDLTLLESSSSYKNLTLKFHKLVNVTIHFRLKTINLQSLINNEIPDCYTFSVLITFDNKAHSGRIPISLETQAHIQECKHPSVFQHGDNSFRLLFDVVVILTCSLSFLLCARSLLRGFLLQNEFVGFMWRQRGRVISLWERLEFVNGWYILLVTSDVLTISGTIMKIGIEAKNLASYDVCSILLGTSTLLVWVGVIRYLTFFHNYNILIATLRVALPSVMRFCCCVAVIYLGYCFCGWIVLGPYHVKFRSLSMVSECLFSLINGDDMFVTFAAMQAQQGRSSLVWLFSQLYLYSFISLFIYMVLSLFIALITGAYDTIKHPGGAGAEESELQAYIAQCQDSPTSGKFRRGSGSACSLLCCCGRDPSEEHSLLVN
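Calcium fluorescence in TRPML1-DL cells induced overnight with Tet: a 110 s read after compound pin addition, then a 110 s antagonist read after challenge with 54-4 at 4 uM final (EC80).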
TRPML1 ag: activates the human TRPML1 channel. hit rate 0.12% among 410,000. Q9GZU1. TRPML1-expressing cells, Ca2+ dye fluorescence, FDSS; host cell line not named in the record; reference of the full effect not given here. activation, % (no concentration beside the values); in the data active = activation above about 50%; inconclusive = about 30% to 50%; inactive = below about 30%; note: 0% is about no effect; the text of the record puts the active cut at 80%
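Tetracycline-induced TRPML1-DL cells are seeded and incubated overnight before loading with a no-wash Ca2+ dye and quencher. Agonist activity is taken from the 110 s fluorescence read following compound pin-transfer on an FDSS, before EC80 54-4 challenge.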
* marks the source's active call; other numbers are inactive results; u = inconclusive; x = no result given; & = joins results of further samples; [ ] = dose if it differs, or a comment.

mol,D2 PAM,PINK1 expr mod,D2 agonist,Six1-Eya2 blk,TRPML1 inh,TRPML1 ag
CC1(C)CC(=O)C(Sc2ccccc2)=C(O)C1,1,-0.9%,-4.4,51,-14,1.0
Cc1nnc(NC(=O)CCCN2C(=O)c3ccccc3C2=O)s1,-1,0.4%[38.3 µM],-1.6,4,-1,5.7
CC(NC(=O)Cc1ccccc1)c1nc2ccccc2[nH]1 (stereo unspecified),-11,4.0%,-5.7,2,0,0.0
COc1ccccc1CCNC(=O)CCn1c(=O)c2cccn2c2ccc(F)cc21,-3,7.1%&0.0%,-5.1,-1,-11&-6,-1.1&2.7
O=c1[nH]c(SCc2n[nH]c(=S)n2-c2ccccc2)nc2ccccc12,-29,-2.2%,1.6,2,36,0.6
CC(=O)Nc1sc2c(c1CN1CCN(C)CC1)CCCC2,-8,0.3%,-8.8,0,-1,-0.6
CNC(=O)CS(=O)(=O)CC(=O)Nc1cc(OCCOC)c(Cl)cc1Cl,-6,-0.1%,-20,8,15,-0.9
CC(=O)NS(=O)(=O)c1ccc(NC(=S)NC(=O)COc2ccccc2C)cc1,-23,-1.3%,-5.4,1,4,0.3
COc1ccccc1CNC(=O)C1CCN(c2ncnc3c2nc2n3CCCCC2)CC1,-7,0.5%&1.0%,3.3,-9,-6&-4,-0.6&-0.7
O=C(Nc1sc2c(c1C(=O)O)CCC2)c1ccccc1F,-2,-0.6%,-0.9,-5,x,x
COc1ccccc1C(=O)Nc1c(C(=O)c2ccccc2)oc2ccccc12,x,6.4%,x,x,-3,0.4
Cc1ccccc1Nc1c(C)c(C)nc2ncnn12,-5,-0.4%,6.0,-4,-13,0.0
Cc1csc(SCC(=O)NCc2ccc3c(c2)OCO3)n1,-12,1.7%,-2.8,-13,-11,-0.9
COc1ccc2c(c1)c(=O)c(C(=O)c1ccc(F)cc1)cn2CC(=O)Nc1ccc2c(c1)OCO2,x,3.1%,x,x,12,-0.9
O=C(Cc1c(C(=O)O)[nH]c2ccccc12)NC1CCCC1,4,-0.8%,-2.2,7,20,0.8
COc1cccc(NC(=O)c2oc3ccccc3c2NC(=O)c2ccc(C(F)(F)F)cc2)c1,x,0.8%,x,x,-7,-0.5
CCn1cc(S(=O)(=O)NC2CCCCC2)cn1,-7,0.3%,-2.0,6,3,0.0
CC(C)C[C@H](NC(=O)c1nc[nH]c1C(=O)N[C@@H](CC(C)C)C(=O)OCc1ccccc1)C(=O)OCc1ccccc1,-10,7.6%,-8.0,6,-1,2.9
Cc1ccc(-c2cnc(C3CC3)o2)cc1S(=O)(=O)Nc1ccccc1,-12,0.3%,4.4,-2,8,2.3
O=C(NNC(=O)c1ccccc1-n1cccc1)c1ccc(Cl)nc1,-1,-0.2%,-2.7,2,33,3.0
CCCCC(CC)C(=O)O (stereo unspecified),-19,-0.3%,-7.4,-10,x,x
N#C/C(=C/c1ccc(-c2ccccc2[N+](=O)[O-])o1)C(N)=O,-1,25%,-6.3,-16,11,0.8
CC1CCC(NC(=O)CC(NC(N)=O)c2ccccc2Cl)CC1 (stereo unspecified),-6,0.0%,-0.8,5,-11,0.0
O=S(=O)(Cc1ccccc1)N1CCN(C/C=C/c2ccccc2)CC1,-12,5.0%[38.3 µM],-2.1,3,3,-0.8
CC(C)c1ccc(NC(=O)c2cnc3sc(N4CCCC4)nn3c2=O)cc1,x,1.2%,x,x,-7,-0.1
COc1ccc(OC)c(S(=O)(=O)NCCc2sc(-c3cccnc3)nc2C)c1,x,-0.1%,x,x,13,0.7
Cc1cc(CNC[C@H]2O[C@@H](n3cnc(C(N)=O)n3)[C@H](O)[C@@H]2O)c(C)n1-c1cccnc1,x,0.1%,-2.5,4,15,-0.2
CC1(C)NC(=O)N(CCOc2cccc(Cl)c2Cl)C1=O,-7,2.3%[38.3 µM],-3.6,24,u,1.0
CCN1C(=O)[C@H]2[C@@H](c3ccc(-c4cccc(Cl)c4)c(OC)c3)N3CCC[C@@]3(C(=O)OC)[C@H]2C1=O,-13,2.9%,-0.6,-8,36,-0.3
CCOc1cccc(OCCn2cnc3ccccc3c2=O)c1,-1,0.3%,0.6,0,17,0.9
COc1ccc(S(=O)(=O)Nc2ccc(Nc3ccccc3)cc2)cc1,-2,1.2%,5.6,3,11,3.0
CC(OC(=O)c1ccc2c(=O)n3c(nc2c1)CCC3)C(=O)Nc1ccc(C(N)=O)cc1 (stereo unspecified),0,1.1%,1.0,-2,2,0.3
Nc1ccc(Cl)c(S(=O)(=O)Nc2cccc(Cl)c2)c1,-1,2.4%,-6.3,2,6,-0.3
O=C(Nc1ccncc1)c1cc(C2CCCCN2C(=O)CCc2ccccc2)on1 (stereo unspecified),-1,4.5%,-3.4,-13,x,0.2
Cc1ccc(-n2ccnc(NCc3cccs3)c2=O)cc1C,x,3.8%,x,x,6,0.4
O=C(N/N=C/c1cc(Br)c(Br)o1)c1ccc2c(c1)OCCO2,-9,1.8%,-2.7,-28,11,2.9
COc1c(C)cccc1C(=O)NC(=S)Nc1cccc2nsnc12,3,1.4%,5.6,1,3,-0.2
CNC(=S)NNC(=O)c1noc(C)c1C(=O)N1CCN(C(c2ccccc2)c2ccccc2)CC1,1,-3.3%,5.4,-28,-12,-0.1
COc1cc(/C=C2/C(=N)N3N=C(CC(=O)N4CCOCC4)SC3=NC2=O)ccc1OCc1ccccc1,5,4.1%,0.1,2,-8,-0.8
Cc1cccc(-n2nc3c(c2NC(=O)CCC2CCCCC2)CS(=O)C3)c1C (stereo unspecified),-5,-0.1%,-3.3,8,2,-0.6
O=C(NCC1CCCO1)c1ccc(N2CCCCC2)c([N+](=O)[O-])c1 (stereo unspecified),-18,2.9%,-3.6,-1,-1,-1.1
C/C(=N\N=C\c1ccccc1F)c1nnn(-c2nonc2N)c1C,2,7.8%,0.7,1,13,-0.3
O=C(NCc1cccnc1)c1ccc(COc2ccccc2Br)o1,-8,0.4%[38.3 µM],-2.4,1,2,1.2
COc1ccc(NC(=O)C2C3C=CC(C3)C2C(=O)O)cc1 (stereo unspecified),-3,-0.1%,-2.0,8,x,x
O=C(O)Cc1sc(Nc2cccc3ccccc23)nc1-c1ccc(Cl)cc1,9,1.9%,-0.2,-2,7,-1.1
O=c1c2c(nc3nc(Cc4ccccc4)[nH]n13)CCC2,15,-2.6%,2.5,12,12,1.5
COc1ccc(CC(C)N2CCN(Cc3ccccc3)CC2)c(OC)c1 (stereo unspecified),-11,-1.7%[38.3 µM],5.4,-8,-4,-0.1
CCN(CC)S(=O)(=O)c1ccc(N2CCOCC2)c(NC(=O)C(=O)c2c(-c3ccccc3)cc3ccccn23)c1,-11,x,-0.9,-21,14,-0.2
CC(=O)Nc1ccc(/C=C/C(=O)c2ccc3c(c2)OCCO3)cc1,-3,0.1%,-0.6,6,-4,-0.7
CCC(CO)n1c(SCc2cc([N+](=O)[O-])cc3c2OCOC3)nc2ccccc2c1=O (stereo unspecified),-8,0.8%,-3.3,-22,-4,-0.1
CCOc1ccc(NC(=O)CN(C)C(=O)CCCc2c[nH]c3ccccc23)cc1OCC,-3,2.9%,-5.4,u,-8,0.8
O=C(NCc1ccc2c(c1)OCO2)c1ccc2c(c1)N(Cc1ccc(F)cc1)C(=O)c1ccccc1S2=O (stereo unspecified),x,-0.7%,x,x,-13,-0.4
Cc1ccc(C(=O)N/C(=C/c2cccs2)C(=O)N2CCCCC2)cc1,-7,1.0%,-5.0,7,53,1.0
COc1cccc(N2CCN(C(=O)CCc3c(C)nc4c(c3C)c(=O)n(C)c(=O)n4C)CC2)c1,x,8.0%,x,x,-22,-0.6
CN1c2cccc3cccc(c23)N(C)C1(C)C,16,0.5%,-1.6,-19,4,1.7
COc1ccc(-c2cc(C(=O)NCCN3CCOCC3)no2)cc1OC,-14,0.7%,-2.3,8,0,0.5
Cc1cc(C)cc(NC(=O)C(=O)NCC(c2cccnc2)N2CCOCC2)c1 (stereo unspecified),x,2.2%,x,x,26,1.1
COc1ccccc1NC(=O)N1CCN(C(=O)c2ccco2)CC1,0,0.8%,-3.9,-6,21,0.0
CCOc1ccc(N2C(=O)Nc3ccccc3C2(O)C(=O)NCc2ccccc2)cc1 (stereo unspecified),11,2.1%,0.0,-18,-3,-0.8
Cc1ccc(-n2c(COc3c(C)cccc3C)nnc2SCC(=O)Nc2nccs2)cc1,-2,21%[38.3 µM],2.5,1,0,0.4

(next part)
Under each structure – D2 PAM, PINK1 expr mod, D2 agonist, Six1-Eya2 blk, TRPML1 inh, TRPML1 ag
Cc1sc(NC(=O)c2ccco2)c(C(c2ccc(F)cc2)N2CCN(C)CC2)c1C (stereo unspecified)
  -24, 0.2%, -2.9, -21, 5, -0.2
COC(=O)C1=C(O)/C(=C/c2ccc(OCC(=O)Nc3ccccc3)cc2)N=C1C
  -1, 1.6%, 0.9, 1, 30, -0.4
CC(C)C(=O)OCCN=C1NS(=O)(=O)c2ccccc21
  -4, -2.5%, -1.1, 6, -2, 0.4
COc1cc(C(=O)NCc2ccccc2)ccc1OC(F)F
  -29, 4.2%, -1.5, 3, -10, 3.4
CCCCNC(=O)OCCNC(=O)Oc1cccc(C)c1
  -8, 0.2%, -1.1, 0, -7, -0.4
COc1ccc(-c2cc(C(=O)N3CCCC(C(F)(F)F)C3)c3ccccc3n2)cc1 (stereo unspecified)
  1, 3.0%, 1.7, 2, -6, 3.9
CC(C)(C)NC(=O)CC1C[C@H](C(=O)N2CCCCC2)[C@@]2(C)c3[nH]c4ccccc4c3CCN2C1=O (stereo partly specified)
  x, -1.0%, -0.5, 2, 0, -0.3

Exported with each value named: entries from further up
Compound: CC(C)C(=O)OCCN=C1NS(=O)(=O)c2ccccc21
  D2 PAM: -4
  PINK1 expr mod: -2.5%
  D2 agonist: -1.1
  Six1-Eya2 blk: 6
  TRPML1 inh: -2
  TRPML1 ag: 0.4

Compound: COc1cc(C(=O)NCc2ccccc2)ccc1OC(F)F
  D2 PAM: -29
  PINK1 expr mod: 4.2%
  D2 agonist: -1.5
  Six1-Eya2 blk: 3
  TRPML1 inh: -10
  TRPML1 ag: 3.4

Compound: CCCCNC(=O)OCCNC(=O)Oc1cccc(C)c1
  D2 PAM: -8
  PINK1 expr mod: 0.2%
  D2 agonist: -1.1
  Six1-Eya2 blk: 0
  TRPML1 inh: -7
  TRPML1 ag: -0.4

Compound: COc1ccc(-c2cc(C(=O)N3CCCC(C(F)(F)F)C3)c3ccccc3n2)cc1 (stereo unspecified)
  D2 PAM: 1
  PINK1 expr mod: 3.0%
  D2 agonist: 1.7
  Six1-Eya2 blk: 2
  TRPML1 inh: -6
  TRPML1 ag: 3.9

High-throughput results: PubChem BioAssay, National Center for Advancing Translational Sciences (NCATS)
